Screening results (PubChem)
RE007 growth inh = less growth of the S. pombe RE007 Vpr strain. S. pombe RE007 Vpr strain, BacTiter-Glo ATP luminescence, 24 h; control for the full effect not named in the record. Potency, µM (doses to about 92.2 µM), for inactives: at the highest dose activity change, negative = less growth. hit rate 0.21% among 360,000; active = well fitted falling curve with a large enough effect; inconclusive = small, poorly fitted or top-dose-only effect; inactive = no such curve, though single readings can be large or run the other way;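 also: % is scaled to controls: 0 for no effect and ±100 for the full control effect; nearly all actives have a fitted effect of over 50% in size; the assay follows cell death caused by Vpr and the record does not say whether a fall means rescue or toxicity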
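Fission yeast strain RE007, carrying one chromosomally integrated HIV-1 vpr copy, was seeded at OD 0.01 in PMG+AL medium with 23 nL pinned compound. After 24 h at 30 °C and 99% humidity, viability was read by BacTiter-Glo luminescence.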
SARS PLP yeast = blocks SARS-CoV papain-like protease in a yeast assay; S. cerevisiae expressing SARS-CoV PLpro, growth rescue; control for the full effect not named in the record; hit rate 0.19% among 330,000; Potency, µM (series often up to 32.9 µM), without a hit: at the top dose activity, positive = growth rescue; active means well fitted rising curve with a large enough effect; inconclusive means small, poorly fitted or top-dose-only effect; inactive means no such curve, though single readings can be large or run the other way; also: 0% is about no effect; nearly all actives have a fitted effect of over 55% in size; growth read by luminescence after 48 h
NS1 inh = blocks influenza NS1 protein function. S. cerevisiae slowed by influenza A NS1, growth recovery by OD600. Potency, µM (doses to about 46.1 µM), for inactives: at the top dose activity, positive = more growth. hit rate 0.4% among 270,000; active means well fitted rising curve with a large enough effect; inconclusive means small, poorly fitted or top-dose-only effect; inactive means no such curve, though single readings can be large or run the other way; also: nearly all actives have a fitted effect of over 50% in size
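In this qHTS, NS1 from influenza A is expressed in budding yeast, where it slows growth. Cells are switched from glucose to 2% galactose medium (pH 6.0, -URA), treated with compound, and growth recovery is read at OD600.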
Cruzain Triton = cruzain (T. cruzi) inhibition with detergent; P25779; purified cruzain, Z-FR-AMC fluorescence, 0.01% Triton; Potency, µM, inactives show max response, negative = inhibition, usual class: inhibitors; hit rate 0.43% among 200,000; AID 1478;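 also: plate controls were neutral wells for no effect and buffer without enzyme for full effect; nearly all actives have a fitted effect of over 40% in size; top concentration of the series not given in the record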
Target sequence (P25779 123-467 limits assumed): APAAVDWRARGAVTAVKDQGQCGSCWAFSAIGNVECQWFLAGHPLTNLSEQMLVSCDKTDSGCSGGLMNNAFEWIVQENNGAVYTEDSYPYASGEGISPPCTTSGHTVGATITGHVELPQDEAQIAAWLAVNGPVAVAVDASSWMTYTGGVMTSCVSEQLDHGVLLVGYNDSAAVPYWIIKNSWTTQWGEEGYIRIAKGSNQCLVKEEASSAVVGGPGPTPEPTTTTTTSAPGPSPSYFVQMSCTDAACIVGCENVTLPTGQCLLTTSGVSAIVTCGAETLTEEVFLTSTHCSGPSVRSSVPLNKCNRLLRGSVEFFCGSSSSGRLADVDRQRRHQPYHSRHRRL
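15 min RT preincubation of 1.5 nM cruzain with compound, then 2 uM Z-FR-AMC added; kinetic AMC fluorescence, 60 s delta. Triton X-100 0.01%, pH 5.5.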
Cruzain noTriton = cruzain (T. cruzi) inhibition without detergent; P25779; purified cruzain, Z-FR-AMC fluorescence, no detergent; Potency, µM, without a hit: max response, negative = inhibition, usual class: inhibitors; hit rate 2.3% among 200,000; AID 1476;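 also: plate controls were enzyme without inhibitor for no effect and buffer without enzyme for full effect; nearly all actives have a fitted effect of over 40% in size; top concentration of the series not given in the record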
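Purified cruzain at 1.5 nM, pre-incubated 15 min with compound at room temperature in 100 mM sodium acetate pH 5.5, 5 mM DTT, 0.00005% Triton X-100. Reaction started with 2 uM Z-FR-AMC; AMC fluorescence increase over 60 s gives rate.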
2A StopGo = FMDV 2A StopGo reporter, luciferase signal; human cells with a luciferase reporter of 2A StopGo recoding; control for the full effect not named in the record; Potency, µM (series often up to 57.9 µM), without a hit: top-dose signal change, negative = less light; hit rate 1.2% among 410,000; AID 1159524; active = well fitted falling curve with a large enough effect; inconclusive = small, poorly fitted or top-dose-only effect; inactive = no such curve, though single readings can be large or run the other way; tested in HEK293T cells; also: % is scaled to controls: 0 for no effect and ±100 for the full control effect; nearly all actives have a fitted effect of over 45% in size; luciferase light after 4 h
Lassa entry inh = blocks Lassa virus binding to or entry into cells. Potency, µM (series often up to 37.9 µM), without a hit: at the highest dose activity change, negative = inhibition, most hits filed as inhibitors. AID 540256. Lassa virus pseudotype entry inhibition, cell reporter; control for the full effect not named in the record. hit rate 1.2% among 300,000; active means well fitted inhibition curve with a large enough effect; inconclusive means small, poorly fitted or top-dose-only effect, or effect the other way; inactive means flat fitted curve, though single readings scatter; tested in HEK293 cells; also: % is scaled to controls: 0 for no effect and ±100 for the full control effect; nearly all actives have a fitted effect of over 50% in size; luciferase read-out
Marburg entry inh = inhibitors of Marburg virus binding or cell entry | Marburg virus pseudotyped entry inhibition, cell reporter; control for the full effect not named in the record; about a third of the inactives were read at about 46 µM | Potency, µM (highest dose often 37.8 µM), for inactives: top-dose activity change, negative = inhibition, most hits filed as inhibitors | hit rate 1.8% among 300,000 | AID 540276; active = well fitted inhibition curve with a large enough effect; inconclusive = small, poorly fitted or top-dose-only effect, or effect the other way; inactive = flat fitted curve, though single readings scatter; tested in HEK293 cells; about a fifth of its hits are not listed in these tables; also: % is scaled to controls: 0 for no effect and ±100 for the full control effect; luciferase read-out
Active calls of the source: *; ? = inconclusive; / = no result given; & = joins results of further samples; [ ] = dose if it differs, or a comment. Unless noted, calls follow the shape of the dose curve; as a rule, active = well fitted curve in the direction sought with a large enough effect; inconclusive = small, poorly fitted or top-dose-only effect, or another doubt; inactive = no such curve, though single readings can be large; an effect the other way counts as inactive or inconclusive. Potency is read from the fitted curve at half-maximal effect.

SMILES	RE007 growth inh	SARS PLP yeast	NS1 inh	Cruzain Triton	Cruzain noTriton	2A StopGo	Lassa entry inh	Marburg entry inh
CCOP(=O)(OCC)C(NC(=O)c1ccc(Cl)cc1)=C(Cl)Cl	-3%	3%	5%	2.2%	5%	/	-1%	-11%
Cc1c(C)c(C)c(S(=O)(=O)N2CCSCC2)c(C)c1C	2%	0%	-10%	/	/	-20%	/	/
CN(C1=C(NC(=O)c2ccc(Cl)cc2)C(=O)c2ccccc2C1=O)c1ccccc1	?	-24%	27%	-4.4%	?	?	?	?
CCN(c1cccc(C)c1)S(=O)(=O)c1cccc2nsnc12	-6%	-9%	0%	-8.2%	-3%	-19%	-13%	-14%
Cc1ccc(S(=O)(=O)NCCC(=O)Nc2ccc(Cl)c(Cl)c2)cc1	4%	4%	1%	-8.4%	-3%	-19%	-1%	-5%
COc1ccc(-c2cc3c(=O)n(CC(=O)NCc4ccc(Cl)cc4)ncn3n2)cc1	-8%	11%	1%	/	/	14%	/	/
CCN1CCN(S(=O)(=O)c2ccc(Cl)c(C(=O)N(CC)Cc3ccccc3)c2)CC1	1%	-3%	/	/	/	-15%	-10%	-7%
O=C(COC(=O)c1ccc2c(c1)S(=O)(=O)N=C1CCCCCN12)NCc1cccs1	-4%	1%	2%	/	/	-5%	/	/
O=c1nc(Nc2ccccc2)sc2ccc([N+](=O)[O-])cc12	9%	15%	1%	-3.1%	10µM*	-9%	8%	-26%
Cc1ccc(C(=O)N2CCC(C(=O)NC3CCCCCC3)CC2)cc1	-7%	-1%	-6%	/	/	17%	10%[46.1 µM]	3%[46.1 µM]
O=C(CNC(=O)C1CCCCC1)Nc1cc(Cl)ccc1Cl	-4%	20%	0%	-3.1%	3%	35%[activator]	3%	-4%
Cc1cccc(N2CCN(c3c(CN4CCCC4)c(=O)oc4ccccc34)CC2)c1C	/	/	/	-0.4%	-12%	-3%	13%[46.1 µM]	-1%[46.1 µM]
Cc1ccccc1Nc1nc(N)nc(CN2CCN(Cc3ccc4c(c3)OCO4)CC2)n1	-12%	1%	-3%	/	/	?	/	-17%
COc1cc(Cl)c(C)cc1NC(=O)CSc1nnc(-c2ccco2)n1CC(C)C	2%	3%	-41%	-19%	28%	25%	?	?
Nc1c(S(=O)(=O)c2ccccc2)c2nc3ccccc3nc2n1C1CC1	-5%	2%	/	/	/	37%[activator]	6%	2%[46.1 µM]
Cc1ccc(C)c(N2CCN(C(=O)Cn3nc(C)c4sc5ccccc5c4c3=O)CC2)c1	/	/	/	-5.0%	?	-25%	?	?
O=C(/C=C1\NC2(CCCC2)Cc2ccccc21)N1CCOCC1	11%	4%	0%	2.5%	-5%	?	-14%	-10%
CCCCN(C(=O)CCN1C(=O)C2CC=CCC2C1=O)c1c(N)n(CCCC)c(=O)[nH]c1=O (stereo not given)	3%	/	/	/	/	-11%	0%	19%
CC(=O)N/C(=C\c1ccccc1)C(=O)OCC(=O)c1ccc(F)cc1	18%	-3%	/	/	/	-2%	14%	0%
COc1ccccc1CNC(=O)c1cn(C)c2ccc(S(=O)(=O)N3CCC(C)CC3)cc2c1=O	/	/	/	-0.3%	4%	-3%	?	26%[46.1 µM]
Cc1ccc(Sc2ncccc2C(=O)N(C)Cc2cccs2)c(C)c1	23%	-9%	-53%	/	/	-8%	/	-7%[46.1 µM]
O=C(COc1cccc2cccnc12)Nc1ccccc1	-20%	-1%	/	/	/	64%[activator]	1%	?
Cc1ccc(C(=O)Nc2ccc(S(=O)(=O)N3CCC(c4nc5ccccc5s4)CC3)cc2)cc1	/	/	/	-1.5%	-14%	?	24%[46.1 µM]	-5%[46.1 µM]
CCOc1ccc(-n2ccn(CC(=O)NCCc3ccccc3)c(=O)c2=O)cc1	1%	13%	/	/	/	12%	-1%[46.1 µM]	16%
O=C(COc1ccccc1)NNC(=O)COc1ccc([N+](=O)[O-])cc1	-13%	1%	/	/	/	-10%	-6%	-10%[46.1 µM]

The list continues.
SMILES	RE007 growth inh	SARS PLP yeast	NS1 inh	Cruzain Triton	Cruzain noTriton	2A StopGo	Lassa entry inh	Marburg entry inh
Cc1ccc(-c2nnc(SCC(=O)OC(C)C)n2N)cc1	-20%[3.69 µM]	3%	7%	2.0%	6%	-3%	13%	5%
CN(Cc1ccccc1)CC1CCCN(CCc2ccccc2F)C1 (stereo not given)	-8%	2%	16%	/	/	-12%	-2%[46.1 µM]	?
Cc1ccc(CCN2CC(C(=O)NC3CCCCC3)CC2=O)cc1 (stereo not given)	5%	0%	-4%	/	/	2%	/	/
Cc1c(Cl)cccc1NC(=O)CSc1sc2c(O)cc(=O)[nH]c2c1C#N	1%	2%	28%	/	/	-10%	-2%[46.1 µM]	-23%[46.1 µM]
Cc1ccc(S(=O)(=O)N2CCOCC2)cc1NC(=O)COC(=O)c1ccc(Br)cc1	-4%	0%	/	/	/	3%	1%	0%
O=C(Nc1ccc(F)c(F)c1)c1cnc(-c2ccccc2)nc1-c1ccccc1	15%	-7%	-1%	3.7%	?	-9%	?	?
O=C(COc1ccccc1Cl)NCc1ccncc1	13%	-1%	-3%	-0.1%	5%	-16%	19%	16%
CCn1c(=O)c(C(=O)NCCN2CCCCC2)c(O)c2ccccc21	-9%	0%	-4%	0.5%	2%	-13%	2%	?
Cc1ccc(CSc2nnc(NC(=O)Cn3cnc4ccccc4c3=O)s2)cc1	-4%	2%	-1%	/	/	13%	/	/
COc1cc(NC(=O)CSc2nc3ccccc3nc2Cc2ccc(Cl)cc2)cc(OC)c1	/	/	/	1.0%	-17%	2.5µM*	-16%[46.1 µM]	/
Cc1ccc(NC(=O)CSc2nnc(-c3cccs3)o2)cc1S(=O)(=O)N1CCCCC1	15%	-3%	-15%	-6.0%	-8%	-13%	6%	-8%
Cc1nc2sc(C(c3cccs3)N3CCN(c4ccccc4)CC3)c(O)n2n1 (stereo not given)	0%	1%	-54%	-2.2%	2%	-14%	/	/
COc1cccc(N2CCN(Cc3nc4scc(-c5ccccc5)c4c(=O)[nH]3)CC2)c1	19%	9%	25%	-3.0%	?	?	?	?
O=C(COC(=O)c1ccc(S(=O)(=O)NCc2ccco2)cc1)Nc1ccc(OC(F)F)cc1	-24%	17%	2%	-0.2%	-22%	-10%	2%	1%[46.1 µM]
Nc1ccc2oc(-c3ccc4nc[nH]c4c3)nc2c1	-25%	-30%	8%	-11%	?	-19%	16µM*	?
Cc1nccn1Cc1ccc(Cl)nc1	32%	1%	/	/	/	-14%	13%	?
O=C(Nc1ccc(Br)cc1)c1ccc(Br)c(S(=O)(=O)NCc2ccccc2)c1	/	/	/	-3.5%	?	-30%	?	/
CS(=O)(=O)NCCSCc1ccco1	4%	0%	8%	3.7%	-1%	/	0%	5%
CC12CCC(C(=O)NCc3ccccc3Cl)(C(Br)C1=O)C2(C)C (stereo not given)	/	7%	8%	6.0%	?	-14%	7%	11%
COCCOC(=O)C1=C(C)Nc2ncnn2C1c1ccccc1 (stereo not given)	-6%	3%	-4%	0.6%	2%	1%	-3%	-1%
CS(=O)(=O)c1ccc2nc(NC(=O)c3cc([N+](=O)[O-])cc([N+](=O)[O-])c3)sc2c1	-16%	-5%	9%	/	/	-3%	/	/
Cc1oc(-c2ccc(Cl)cc2)nc1CN1CCCC(C(=O)NCc2cccnc2)C1 (stereo not given)	-11%	3%	-8%	3.8%	-5%	?	-25%	-24%
C=CCc1cccc(CNc2ccc(Br)cc2)c1O	?	-4%	4%	/	/	14%	?	?
O=c1c2ccccc2nc(SCc2cccc(F)c2)n1C1CCCC1	/	-2%	1%	1.5%	7%	-6%	-30%	?
CCOc1ccc(NC(=O)NCCN2CCN(c3ccccc3F)CC2)cc1	4%	0%	-1%	-1.8%	-8%	-30%&-2%	?	1%[46.1 µM]

Additional compounds follow:
SMILES	RE007 growth inh	SARS PLP yeast	NS1 inh	Cruzain Triton	Cruzain noTriton	2A StopGo	Lassa entry inh	Marburg entry inh
COc1ccc(N2CCN(CC(=O)Nc3nc4c(s3)CC(C)CC4)CC2)cc1 (stereo not given)	13%	-6%	-86%	-4.4%	6%	-12%	-12%	4%
Cn1c(=O)c2sccc2n2c(CCCC(=O)NCCc3ccc(S(N)(=O)=O)cc3)nnc12	5%	0%	2%	/	/	14%	?	8%[46.1 µM]
Cc1nn(Cc2ccccc2)c(C)c1NC(=O)CSc1n[nH]c(C)c1[N+](=O)[O-]	-6%	26%	2%	-2.5%	-1%	0%	?	-31%
COc1cccc(NC(=O)Nc2cc(C(=O)NCC3CCCO3)ccc2N2CC3CC(C2)c2cccc(=O)n2C3)c1 (stereo not given)	-8%	-2%	-10%	/	/	-3%	/	/
c1ccc2[nH]c(CN3CCOCC3)nc2c1	0%	18%	11%	-0.6%	0%	/	17%	-16%
COCCN1C(=O)c2oc3ccc(C)cc3c(=O)c2C12C(=O)N(C)c1ccccc12 (stereo not given)	/	/	/	-0.2%	6%	6%	26%[46.1 µM]	0%[46.1 µM]
CCn1c(SCC(=O)Nc2nccs2)nnc1-c1ccncc1	-2%	-16%	2%	1.4%	3%	-24%	8%	-1%
O=C(Nc1ccc(Cl)cc1)N1CCOC12CCCCC2	-8%	-1%	-3%	/	/	-4%	-1%[46.1 µM]	-1%[46.1 µM]
CCCc1cc(=O)oc2cc(C)cc(OCC(=O)NCc3ccccn3)c12	-1%	1%	-4%	/	/	-21%	/	/
Cc1ccc(NS(=O)(=O)c2ccc(C(=O)NCc3cccnc3)cc2)cc1	-24%	?	-2%	/	/	-15%	-11%	0%
CSc1ccc(CCNC(=O)C2CCN(c3nc4ccccc4nc3C(F)(F)F)CC2)cc1	/	/	/	1.7%	4%	-13%	5%[46.1 µM]	/
COC(=O)c1sc(NC(=O)c2cc(C)on2)nc1C	-7%	25%	-60%	/	/	28%	27%[46.1 µM]	5%[46.1 µM]
Cc1ccc(C(=O)NCCNc2ccc(Cl)cc2[N+](=O)[O-])o1	11%	-12%	-20%	-3.1%	-12%	-23%	0%	-1%
COc1ccc(/C=N/NC(=O)c2cc[n+]([O-])cc2)cc1O	1%	1%	-5%	/	/	-1%	19%[46.1 µM]	9%[46.1 µM]
